Mtb hypoxia inh – inhibitors of hypoxia-regulated fluorescent reporter in Mycobacterium tuberculosis; M. tuberculosis hypoxia-regulated fluorescent reporter, fluorescence; fluorescence inhibition, % (concentration not given with the values); actives 0.1% (n = 300,000); AID 1159583;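 active = 35 to 45% if threefold the growth effect, above 45% if 1.5-fold the growth effect; inactive = the rest, general growth blockers included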;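 note: wells of about 50 µL received 100 nL stock; 0% = vehicle wells and 100% = reference inhibitor wells; whole bacteria with a GFP reporter of the hypoxia response; strong numbers were not always called active; many hits fall short of the cut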
Autofluor counter – counter-screen for toxin protease inhibitors: compound fluorescence. compound autofluorescence counterscreen, microsphere flow cytometry; stronger effect = higher value. fluorescence intensity (test concentration not listed). actives 3.1% (n = 360,000);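 active = at least 3 SD above the mean of all compounds, about 16000 in these data; inconclusive = too few beads counted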;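 note: 100 nL of 1 mM stock went into each well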
BJeLR viability – kills HRASV12-expressing BJeLR cells; BJeLR (HRASV12) viability, CellTiter-Glo ATP luminescence, 48 h; reference of the scale not given here; inhibition, % (no concentration beside the values); actives 0.17% (n = 300,000); AID 1554;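 active = replicate mean above 50%; inconclusive = above 50% but judged a plate artefact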;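 note: 50 nL library stock added to about 25 µL; numbers are from one replicate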
ugtP null kill – kills S. aureus RN4220 lacking UgtP. S. aureus RN4220 ugtP deletion, OD600 growth, 16 h; some inactives read as strong as hits. growth inhibition, % (concentration not given with the values). actives 0.54% (n = 330,000);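 active = z-score under -3 and OD600 up to 0.15 on both plates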;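 note: plate controls were untreated wells for no effect and antibiotic for full effect; wells of about 80 µL received 100 nL stock; the first replicate is given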
PrP 5UTR inh – suppresses PrP 5' UTR mRNA reporter expression; cell-based PrP 5' UTR mRNA reporter, plate reader; inhibition, % (concentration not given with the values); actives 0.35% (n = 340,000);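 active = every replicate at 50% or more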;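 note: 0 = median of the neutral control wells; tested in H4 reporter cells; numbers are from one replicate; inactives centre near -14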
RN4220 kill – S. aureus RN4220 growth inhibition; OD600, 16 h; inhibition, % (no concentration beside the values); actives 0.33% (n = 330,000); AID 1259311;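 active = z-score of -3 or lower and OD600 up to 0.18 on both plates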;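 note: plate controls were untreated cells for no effect and reference antibiotic for full effect; stock transfer was 100 nL into about 80 µL; one replicate is shown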
Mtb hypoxia inh growth – also measured in Mtb hypoxia inh; calls as there; growth inhibition, %; measured here: M. tuberculosis growth (absorbance);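 0% = vehicle and 100% = reference antibiotic; read after six days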
Starred values were filed as active, the others as inactive; ? = inconclusive; · = not tested or not shown.

SMILES	Mtb hypoxia inh	Mtb hypoxia inh growth	Autofluor counter	BJeLR viability	ugtP null kill	PrP 5UTR inh	RN4220 kill
C[C@H]1CN(CCc2ccccc2)C(=O)[C@@H]1CC(=O)NCc1ccccc1	·	·	4234	1	·	-44	·
NC(=O)c1ccc(Nc2ccc3nonc3c2[N+](=O)[O-])cc1	9	1	3250	-6	13	-3	13
Cc1ccc2nc(COC(=O)CNC(=O)c3ccccc3)cn2c1	6	1	?	·	16	-16	7.6
COc1ccc(C(=O)CSc2nnc(CNC(=O)c3ccco3)n2C)cc1	4	8	3982	1	-68	-4	13
CC(C)n1c(SCC(=O)N2CCCC2)nc2c1c(=O)n(C)c(=O)n2C	5	-2	5466	-6	11	-6	5.2
FC(F)(F)c1cccc(-c2nc3nc(Cl)c(Cl)nc3[nH]2)c1	·	·	3476	28	·	-65	·
C/C(=N\NC(=O)c1nnn(-c2nonc2N)c1CSc1ccc(Cl)cc1)c1ccco1	·	·	5818	1	·	9	·
Cn1cc(C(=O)c2ccc(Cl)cc2Cl)cc1C(=O)N/N=C(\N)COc1ccccc1	·	·	2452	15	·	-15	·
Cc1ccc(NC(=O)OCCN2CCN(Cc3ccccc3)CCC2=O)cc1C	10	7	4195	-8	3	-6	7.1
CN(CC(=O)Nc1ccc(F)cc1)C(=O)COC(=O)Cc1cccs1	-8	-9	?	6	3	-11	1.6
Cc1ccc(S(=O)(=O)Nc2cc(=O)[nH]c(SCc3ccccc3Cl)n2)cc1	-5	1	2595	10	1	-4	4.2
O=[N+]([O-])c1ccc(CCn2ccnc2)cc1	-5	-10	2739	-1	4	-23	3.7
COc1cccc(/C=C/C(=C2/C(=O)N(c3ccccc3)N=C2C)c2ccc(Br)cc2)c1OC	-1	-8	1969	0	-7	6	-5.9
CCCCCCCCOC(=O)CCc1c(C)[nH]c(=S)[nH]c1=O	-1	4	2393	10	-11	-11	2.8
O=C(Nc1cccc(F)c1)c1coc(=O)c(Br)c1	·	·	1929	4	·	-30	·
Cc1cccc(-n2nnc(C(=O)N3CCc4ccccc4C3)c2N)c1	2	6	3867	-4	0	-22	-2.7
O=C(COc1ccc2c3c(c(=O)oc2c1)CCCC3)NCc1ccccn1	10	-2	6590	11	2	-17	1.5
CCN1CCN(C(=S)c2ccc(Cl)c(Cl)c2)CC1	25	6	9419	4	4	-13	3.6
COc1cccc(NS(=O)(=O)c2ccc3[nH]cc(C(=O)NCCN4CCOCC4)c(=O)c3c2)c1	0	9	3319	-8	-7	-26	-11
O=C(O)CCc1nc(-c2ccc(Cl)cc2)no1	·	·	2615	9	5	-3	-2.3
O=S(=O)(NCc1cccs1)c1cccc(S(=O)(=O)N2CCCCC2)c1	·	·	2339	-13	-1	-15	3.4
COc1ccc(F)cc1C(=O)C1CCCN(C(=O)Cc2c(C)noc2C)C1 (centres undefined)	7	2	4241	4	6	-14	13
O=C(COc1ccc(S(=O)(=O)N2CCCCC2)cc1)NCC1CCCO1 (centres undefined)	-12	-3	4836	0	4	-28	4.3
Nn1c(SCc2cn3cc(Cl)ccc3n2)nnc1-c1ccncc1	1	-2	3142	-1	4	-22	-0.9
O=C1CSC(c2cn(-c3ccccc3)nc2-c2cc3ccccc3oc2=O)N1Cc1ccccc1 (centres undefined)	17	8	2873	1	-3	-13	-14
O=C(OCc1ccccc1C(F)(F)F)c1ccc(Br)c(S(=O)(=O)N2CCOCC2)c1	11	6	·	·	-12	-10	-1.8
COc1ccc(-n2ncc3c(=O)n(Cc4c(F)cccc4Cl)cnc32)cc1	13	1	3206	·	5	-18	7.9
Cc1ccc(S(=O)(=O)N(C)CC(=O)NCCCn2nc(C)cc2C)cc1	3	4	9370	·	5	-12	4.4
Oc1ccc2c3c1OC1c4oc5ccccc5c4C[C@@]4(O)[C@@H](C2)N(CC2CC2)CC[C@]314 (some centres undefined)	·	·	4860	·	13	3	0.2
O=C(c1ccc2c(c1)OCO2)N1CCCC1	6	5	9483	-5	2	-18	1.0
COc1cc(C(=O)Nc2nnc(CC(=O)N3CCOCC3)s2)cc(OC)c1OC	·	·	2400	-1	13	-5	1.9
CSc1ccc(S(=O)(=O)NCC(=O)OC2CCOC2=O)cc1[N+](=O)[O-] (centres undefined)	9	0	?	-6	0	-16	5.8
O=C(O)c1cccc(-n2cccc2/C=C\[N+](=O)[O-])c1	7	3	4308	2	-60	-9	8.5
O=C(O)CSc1sc(=S)sc1SCC(=O)O	3	-12	5209	1	0	-13	2.6
NC(=O)NN=Cc1ccc([N+](=O)[O-])o1	-19	4	·	·	29	·	4.9
CCCS(=O)(=O)N1CCN(C(=O)c2ccc(-c3ccccc3)cc2)CC1	6	5	3652	4	-1	-63	4.1
S=C(NCCC1=CCCCC1)Nc1ccc(Cl)cc1	8	17	2590	-4	-6	-60	-3.3
COc1ccc(NC(=O)C(=O)NN=Cc2cc(C)n(-c3cccc(Cl)c3Cl)c2C)c(OC)c1	-2	6	·	·	3	·	-0.6
O=C(C1CCC(CNS(=O)(=O)c2cccc3cccnc23)CC1)N1CCc2ccccc21 (centres undefined)	·	·	5995	-3	5	-7	4.4
CCN(CC)CCn1cnc2c1c(=O)[nH]c(=O)n2Cc1ccccc1	15	10	3242	-6	12	-3	7.3
O=C(Cc1ccc(Cl)cc1)NCCS(=O)(=O)N1CCN(c2ccccc2)CC1	-4	-11	5117	-5	6	0	-1.4
CCCc1ccc2oc(C(=O)N3CCN(c4cnccn4)CC3)c(C)c2c1	2	2	·	-1	12	-10	18
COc1ccc2c(c1)c(C(=O)NN=Cc1cccc(Br)c1)c(C)n2C	7	0	·	·	5	·	-0.9
Fc1ccc(Oc2ccnc(Cl)n2)c(Cl)c1	10	13	·	-5	1	·	5.2
CC(C)CCn1c(SCCc2ccccc2)nc2c1c(=O)[nH]c(=O)n2C	·	·	5110	5	-1	-14	4.7
CCOC(=O)c1c(NC(=O)COC(=O)CCNS(=O)(=O)c2ccccc2)sc(C(=O)N(C)C)c1C	-5	5	8168	·	7	-15	0.4
CCc1nnc(NC(=O)CN2CCCC(C)C2)s1 (centres undefined)	11	6	3989	5	2	-28	2.3
O=C(Oc1coc(CSc2nnc(NC(=O)c3cccs3)s2)cc1=O)c1ccccc1	4	-3	2302	0	0	2	2.4
CC1Cc2ccccc2N1C(=O)Cn1c(=O)oc2cc(S(=O)(=O)N3CCCCC3)ccc21 (centres undefined)	1	-2	6274	-9	11	-12	-1.2
CCCN1CCC(=NNC(=O)c2ccc(Br)o2)CC1	8	7	10421	-1	4	-13	4.8
Cc1ccc(CC(=O)N2CCN(C(=O)C3CCCO3)CC2)cc1 (centres undefined)	5	-3	4809	5	6	3	1.8
Cc1ccc(NC(=O)c2cc(-n3cnnc3)ccc2Cl)cc1	6	-17	16625*	-5	5	-15	1.3
CC(=NNC(=O)CN(c1ccccc1)S(=O)(=O)c1ccccc1)c1ccccc1O	5	-5	·	·	-1	·	2.7
Cc1ccc(C(=O)c2ccc([N+](=O)[O-])cc2)c(C)c1	·	·	2705	2	45	-21	38
O=C(NN=Cc1ccccc1OCc1ccccc1)c1ccco1	8	1	·	·	1	·	18
Cc1cccn2c(=O)nc(SCC(=O)N3CCC(C)CC3)nc12	5	2	6131	-7	0	-16	4.3
CCS(=O)(=O)N1CCC(C(=O)NCCN2CCN(Cc3ccccc3)CC2)CC1	7	1	7021	6	11	-17	3.2
CC(CNC(=O)c1cc(Cl)ccc1[N+](=O)[O-])NC(=O)c1cc(Cl)ccc1[N+](=O)[O-] (centres undefined)	·	·	4189	-1	1	-9	1.4
NC(=O)c1c(NC(=O)CN2CCCC2)sc2c1CCCC2	·	·	2686	-4	-3	-31	-0.7
Cc1cc(C)c(S(=O)(=O)NCc2ccc3c(c2)OCO3)cc1C	7	7	3921	2	1	-36	-0.7
The list goes on.
SMILES	Mtb hypoxia inh	Mtb hypoxia inh growth	Autofluor counter	BJeLR viability	ugtP null kill	PrP 5UTR inh	RN4220 kill
COc1ccc(/C=C/C(=O)NCCCN2CCCC2)cc1	2	10	4012	2	0	-11	3.7
FC(F)c1nnc2c(Cl)cc(C(F)(F)F)cn12	3	12	3244	3	5	-21	-1.4
COc1ccc(-c2noc(CN(C)C(=O)Nc3ccccc3)n2)cc1	-1	4	2546	-2	-3	-20	3.9
CC(=O)Nc1ccc(Nc2nc(Cl)nc(Nc3ccc(NC(C)=O)cc3)n2)cc1	-5	3	3294	10	6	-2	6.7
O=C(O)/C=C/C(=O)Nc1ccccc1SC(F)(F)F	-4	-2	11476	2	7	0	11
C#CCOCCOCCOCCNc1nc(N2CCOCC2)nc(N2CCN(C(=O)C(Cc3ccc(O)cc3)n3cc(C(N)C(C)CC)nn3)CC2)n1 (centres undefined)	7	9	·	·	1	·	5.9
CCCC(=O)Nc1ccc(-c2cn3cccnc3n2)cc1	8	4	2883	-7	0	-4	0.0
C=CCNC(=O)c1ccccc1NC(=O)c1ccc(Cl)c(S(=O)(=O)Nc2cc(C)ccc2C)c1	10	1	8512	-8	22	-20	0.3
Cc1cc(=O)oc(C)c1C(=O)NCCCN1C(C)CCCC1C (centres undefined)	6	3	24271*	-1	5	-13	0.3
Cc1nnc(SCC(=O)NC(=O)NC(C)(C)C)n1N	3	7	4689	1	-1	-16	4.5
C[C@H](NC(=O)c1ccccc1F)C(=O)N1CCC2(CC1)NCCc1[nH]cnc12	4	13	5876	-5	6	-21	3.5
Cc1cccc(NC(=O)/C(C#N)=C/c2ccccc2O)n1	0	-4	3677	-5	-1	-73	-0.2
COc1ccccc1NS(=O)(=O)c1ccc2c(c1)n(C)c(=O)n2C	7	-4	9064	1	10	-20	8.8
N#CC1(C#N)C(C(=O)C23CC4CC(CC(C4)C2)C3)C12CCOCC2 (centres undefined)	-12	5	4309	4	7	-17	13
CC(=O)c1c(C)[nH]c(C(=O)COC(=O)c2c(-c3ccccc3)noc2C)c1C	10	5	4316	·	5	-50	3.5
CS(=O)(=O)N(CC(=O)NC1CCCCCC1)Cc1ccccc1	8	-3	10636	-8	-1	9	3.4
COC(=O)[C@@H]1C[C@@]2(O)[C@@H](O)[C@@H](O)[C@@H](O)C[C@H]2N1Cc1cc(OC)cc(OC)c1	·	·	2793	-7	·	-31	·
CCN(CC)C(=O)c1[nH]cnc1C(=O)NC(CC(C)C)C(=O)OCc1ccccc1 (centres undefined)	-10	-15	·	·	-1	·	2.8
O=C(C[n+]1ccccc1)N/N=C/c1cccc(Cl)c1Cl	·	·	3610	3	·	-9	·
O=C(CNCc1ccc(F)cc1)Nc1ccccc1-c1ccccc1	14	-12	2566	-9	-1	-12	5.6
S=P(NCCSCc1ccccc1)(N1CC1)N1CC1	-3	2	3469	·	5	-7	6.6
Nc1ccc2c(c1)C(=O)C(=O)c1ccccc1-2	·	·	2145	114*	98*	-37	98*
Cc1sc2ncn(CCC(=O)O)c(=O)c2c1C	·	·	5961	7	-1	-25	0.9
Cc1ccc(OCc2nnc(SCCN3CCOCC3)n2C)cc1	8	7	3279	-1	6	4	2.7

Grouped by structure, the entries above containing a cyano group
SMILES	Mtb hypoxia inh	Mtb hypoxia inh growth	Autofluor counter	BJeLR viability	ugtP null kill	PrP 5UTR inh	RN4220 kill
Cc1cccc(NC(=O)/C(C#N)=C/c2ccccc2O)n1	0	-4	3677	-5	-1	-73	-0.2
N#CC1(C#N)C(C(=O)C23CC4CC(CC(C4)C2)C3)C12CCOCC2 (centres undefined)	-12	5	4309	4	7	-17	13

Next part.
SMILES	Mtb hypoxia inh	Mtb hypoxia inh growth	Autofluor counter	BJeLR viability	ugtP null kill	PrP 5UTR inh	RN4220 kill
CC1CN(C(=O)CCNC(=O)c2ccc(Cl)cc2)CC(C)O1 (centres undefined)	5	11	5478	15	1	5	0.5
COc1ccc2ccc(O)c(CN3CCN(S(=O)(=O)c4cccc(C(F)(F)F)c4)CC3)c2c1	-6	-5	6313	·	-5	4	-0.8
O=C(NC1CCCC1)c1ccc(CS(=O)Cc2ccccc2Cl)o1 (centres undefined)	2	8	5397	1	-3	-7	1.9
COc1ccc(OC)c(NC(=O)CSc2nnc(Cn3c(=O)sc4ccccc43)n2C)c1	·	·	5478	·	2	-18	1.6
CCOC(=O)C1CCN(C(=O)COC(=O)CNS(=O)(=O)c2ccc(SC)c([N+](=O)[O-])c2)CC1	0	1	5957	·	4	-6	3.8

From PubChem

Random draw from the library. About 4% of those tested had a hit in this group.
